D2 potentiator: human D2 receptor positive allosteric modulation | AID 624464 | P14416 | 360,000 tested, 0.23% active | potentiation, % (no concentration beside the values) | DiscoveRx D2 beta-arrestin cells, luminescence, 90 min; 100% = 57 uM dopamine signal; active = potentiation of 50% or more; inconclusive = 30% to 50%; inactive = 30% or less;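 further: compound concentration not given in the record; tested on top of an EC20 dose of dopamine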
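PathHunter D2 cells, attached overnight at 37 deg C, received compound in DMSO plus dopamine at EC20 (50 nM final) for 90 min at 37 deg C. Beta-arrestin recruitment was read as luminescence after 1 h with detection reagent at ambient temperature.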
gsp antagonist: gsp mutant antagonism; gsp-mutant cells, cAMP HTRF, 30 min; control for the full effect not named in the record; Potency, µM (highest dose often 76.9 µM), for the others: at the highest dose activity change, negative = inhibition, actives largely listed as inhibitors; 340,000 tested, 0.4% active; AID 624288; active = falling curve of any shape with a large fitted effect; inconclusive = falling curve, mostly with a smaller effect; inactive = flat or rising curve; cell line not stated here;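 further: intracellular cAMP measured with PDE inhibitor Ro 20-1724 present during compound exposure; potency means the concentration at half of the fitted maximal effect; on the % scale 0 is the no-effect control and ±100 the full control effect; nearly all actives have a fitted effect of over 65% in size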
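Cells in G418 medium, seeded 16-24 h, 37C; buffer exchange to DPBS + 1 mM CaCl2, 0.5 mM MgCl2, 0.05% BSA; cpds in DMSO + […] (300 uM stock), 30 min 37C; HTRF cAMP detection.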
D2 agonist: agonists of human D2 dopamine receptor (beta-arrestin); activation, % (no concentration beside the values); 360,000 tested, 0.084% active; DiscoveRx PathHunter D2 beta-arrestin, luminescence, 90 min; 100% = 57 uM dopamine signal; P14416; in the data active = activation above about 40%; inconclusive = about 15% to 40%; inactive = below about 15%; further: compound concentration not given in the record; the text of the record calls up to 30% inactive
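Agonist mode: compounds alone added to overnight-plated D2 PathHunter cells for 90 min at 37 C, with 57 uM final dopamine (EC100) defining full response. Beta-arrestin recruitment detected by chemiluminescent reagent, read after 1 h at ambient temperature.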
Six1-Eya2 inh: Six1/Eya2 interaction inhibition; Q15475+O00167; AlphaScreen GST-Six1/His-Eya2 binding, biochemical; hits give low values; control for the full effect not named in the record; activity change, % (concentration not given with the values); 360,000 tested, 0.56% active; AID 651725; in the data active = activity change below about -65%; inconclusive = about -30% to -65%; inactive = above about -30%; further: on the % scale 0 is the no-effect control and ±100 the full control effect
Target sequence (O00167 whole entry, looked up): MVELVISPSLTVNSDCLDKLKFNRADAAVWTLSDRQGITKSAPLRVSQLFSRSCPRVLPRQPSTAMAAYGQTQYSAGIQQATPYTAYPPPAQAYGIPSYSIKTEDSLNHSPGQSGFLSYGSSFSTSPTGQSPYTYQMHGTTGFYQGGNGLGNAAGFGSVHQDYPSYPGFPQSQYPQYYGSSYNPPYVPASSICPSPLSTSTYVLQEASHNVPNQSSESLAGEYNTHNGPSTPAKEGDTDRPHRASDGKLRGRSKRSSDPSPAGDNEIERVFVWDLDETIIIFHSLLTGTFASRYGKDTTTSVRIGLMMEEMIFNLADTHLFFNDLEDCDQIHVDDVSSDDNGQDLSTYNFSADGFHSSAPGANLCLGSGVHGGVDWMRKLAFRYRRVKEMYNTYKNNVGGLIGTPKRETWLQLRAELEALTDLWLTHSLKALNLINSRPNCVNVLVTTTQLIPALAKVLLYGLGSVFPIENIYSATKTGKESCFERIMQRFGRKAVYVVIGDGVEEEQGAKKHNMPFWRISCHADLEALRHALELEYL
Target sequence (Q15475 whole entry, looked up): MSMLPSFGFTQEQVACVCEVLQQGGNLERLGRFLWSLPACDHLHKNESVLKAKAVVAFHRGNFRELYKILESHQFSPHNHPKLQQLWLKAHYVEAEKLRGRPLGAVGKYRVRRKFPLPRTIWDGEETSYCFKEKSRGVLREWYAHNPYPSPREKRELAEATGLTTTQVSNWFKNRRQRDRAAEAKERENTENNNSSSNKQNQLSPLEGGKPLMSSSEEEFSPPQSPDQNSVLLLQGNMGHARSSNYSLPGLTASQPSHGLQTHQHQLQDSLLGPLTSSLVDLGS
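Six1/Eya2 binding was read as AlphaScreen signal after compounds were pinned into GST-Six1 plus His-tagged Eya2 (5X stock 250/500 nM) in pH 8.0 Tris/NaCl/TCEP buffer, beads added, then incubated 1 h, 37 C, dark.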
gsp agonist: gsp mutant agonism; AID 624287; gsp mutant cells, cAMP HTRF, 30 min; control for the full effect not named in the record; 340,000 tested, 0.13% active; Potency, µM (top dose mostly 76.9 µM), for inactives: at the top dose activation (cAMP increase), actives largely listed as activators; active = well fitted activation curve with a large enough effect; inconclusive = small, poorly fitted or top-dose-only effect, or another doubt; inactive = no such curve, though single readings can be large or run the other way; cell line not stated here;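 further: phosphodiesterase inhibitor Ro 20-1724 added with compounds to block cAMP breakdown; potency means the concentration at half of the fitted maximal effect; nearly all actives have a fitted effect of over 60% in size; about a fifth of the inactives were tested at one dose only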
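Cells stably selected in G418 were plated at 2000/well, grown 16-24 hr, then given compounds in DMSO with the PDE inhibitor […] (300 uM solution added) for 30 min at 37C; cAMP was read by HTRF.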
CtBP-E1A blk: CtBP/E1A binding inhibition; AlphaScreen GST-E1A/His-CtBP binding, 1536-well; hits give low values; control for the full effect not named in the record; activity change, % (no concentration beside the values); 340,000 tested, 0.49% active; in the data active means activity change below about -65%; inconclusive means about -30% to -65%; inactive means above about -30%; further: on the % scale 0 is the no-effect control and ±100 the full control effect; compound concentration not given in the record
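In 5 uL wells, 23 nL compound meets equimolar GST-E1A and His-CtBP (5X stock 125 nM each) for 2 h, 37 °C. Beads (5X, 50 ug/mL) then 1 h, 37 °C, dark.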
Active calls of the source: *; ? = inconclusive; . = no result given; [ ] = dose if it differs, or a comment.

SMILES	D2 potentiator	gsp antagonist	D2 agonist	Six1-Eya2 inh	gsp agonist	CtBP-E1A blk
O=C(CC(=O)c1cccnc1)c1ccccc1	-10	3%	-0.9	-16	-41%[inhibitor]	-17
COC(=O)Cc1cc(=O)n2[nH]c(C)cc2n1	3	9%	1.3	17	7%	0
COC(=O)N1C(=O)[C@@](c2ccccc2)(C2CCCC2)N1C(=O)OC	-15	3%	-2.5	-3	.	0
O=C(Cn1nc(-c2ccc(Cl)cc2)ccc1=O)NCCN1CCOCC1	-5	7%	-3.5	-7	-1%	-1
CCN(CC)CCNC(=O)c1cc(-c2cccnc2)nc2ccc(S(=O)(=O)N3CCC(C)CC3)cc12	5	-2%	12	-1	-31%	.
Cc1cc(C)n(C2CC(=O)N(c3cccc(Cl)c3)C2=O)n1 (centres undefined)	-4	8%	-5.3	5	-5%[15.4 µM]	2
CCN(CC)CCN1C(=O)C(=O)/C(=C(/O)c2ccc(C)cc2)C1c1cccnc1 (centres undefined)	11	3%	2.1	5	-1%	.
Nc1nnnn1/N=C/c1ccc(Br)cc1	-1	-4%	14	5	11%[15.4 µM]	7
O=[N+]([O-])c1ccccc1CSc1ccccn1	0	-2%	0.0	3	-16%	4
O=[N+]([O-])c1ccc(-c2nc(-c3cccs3)c(-c3cccs3)[nH]2)cc1	-15	?	-1.7	?	24%[15.4 µM]	-22
CC(CCc1ccccc1)NC(=O)c1ccncc1 (centres undefined)	3	12%	-0.4	8	-3%	2
COc1cccc(CNC(=O)CCC2CCCN(Cc3cc(Cl)ccc3O)C2)c1 (centres undefined)	-7	9%	-2.5	-1	0%	-1
COCCn1nnnc1C(c1ccc(OC)c(OC)c1)N1CCN(c2nc3ccccc3s2)CC1 (centres undefined)	-22	-23%	-0.2	-13	-87%	15
COc1cc(C=CC(=O)c2cc(OC)c(OC)c(OC)c2)cc(OC)c1OC	-10	4%	1.7	6	-21%	-6
O=C(NC1=NCCS1)c1ccccc1	-17	-2%	-3.9	-5	5%[15.4 µM]	-12
CCC(=O)Nc1c(C#N)c2nc3ccccc3nc2n1-c1ccc(C)cc1	-3	-27%	-3.9	1	?	-8
CCCCn1c(N)c(N(CCC(C)C)C(=O)COC(=O)c2cccnc2OCC)c(=O)[nH]c1=O	-1	-1%	-3.8	11	10%	-12
O=C1c2sc3nc4n(c(=O)c3c2CCC1Br)CCCCC4 (centres undefined)	14	-1%	13	-3	5%[15.4 µM]	5
CCOC(=O)Cc1cc(=O)[nH]c(/N=C(\N)Nc2ccc(C)c(C)c2)n1	-9	.	-0.7	-1	-4%[15.4 µM]	-18
COc1ccc(OCCSc2ncc(CO)n2C)cc1	-5	0%	-3.4	-3	28%	7
CC1(C(=O)NS(=O)(=O)c2ccc3ccccc3c2)CCN1C(=O)Cc1ccc(-c2ccccc2)cc1 (centres undefined)	-6	.	3.4	0	.	0
COc1ccc(Cl)cc1-n1c(C)ccc1C	-4	4%	-3.4	12	18%[15.4 µM]	-1
CC(C)Oc1cccc(-c2cc(C(=O)N3CCN(S(C)(=O)=O)CC3)c3ccccc3n2)c1	?	-5%	0.6	-2	3%	-8
Cc1cccc(C2=NN(c3ccccc3)[C@@H](C(=O)N3CCOC3=O)[C@@H]2c2ccc(F)cc2)c1	2	-17%	-0.2	28	.	31
CCOC(=O)N1CCN(C(=O)CN(c2ccc(OC)cc2)S(C)(=O)=O)CC1	5	-1%	-2.0	2	-16%	6
COc1cccc(OC)c1C(=O)Nc1nnc(C(C)C)s1	4	-4%	0.9	4	-16%	10
O=C(CC1Sc2ncnn2C1=O)Nc1ccccc1 (centres undefined)	-5	7%	-1.8	2	2%	3
Cc1nc(CNC(=O)c2cc(COc3ccc(F)cc3Cl)on2)cs1	-4	3%	0.1	-6	21%	-6
COc1cccc(-c2cc(C(=O)NCc3cccs3)no2)c1	-4	-2%	-4.7	-5	-6%[15.4 µM]	9
C=CCC1c2cccc(C(=O)OC)c2C(=O)N1c1ccccc1 (centres undefined)	-14	-10%	-1.6	6	-9%	-2
CCc1ccc2c(CN(CC)Cc3nc4ccccc4c(=O)[nH]3)cc(=O)oc2c1	-1	-2%	-2.7	0	-20%	1
CC(=O)c1c(C)[nH]c(C(=O)COC(=O)c2cccc(S(=O)(=O)N(C)c3ccccc3)c2)c1C	17	32µM*	10	-18	-33%[inhibitor]	-2
C[C@@H]1CN([C@@H](C)CO)C(=O)c2cc(NS(=O)(=O)c3cccs3)ccc2O[C@H]1CN(C)Cc1ccc(C(F)(F)F)cc1	-10	-17%	-1.8	-7	.	3
CCOC(=O)C1=C(N)OC2=C(C(=O)CC(C)(C)C2)C1c1ccc(CC)s1 (centres undefined)	-1	?	2.8	-7	0%	2
COC(=O)[C@H](CCSC)NC(=O)Cn1ccc(NC(=O)OCc2ccccc2)nc1=O	-1	?	-5.3	1	25%	4
COC(=O)c1cccc(NC(=S)NC(C)C)c1	-6	7%	-5.6	6	-2%[15.4 µM]	0
Nc1cc(Nc2ccccc2)c2nonc2c1[N+](=O)[O-]	-25	4%	-6.0	?	0%	-26
CCNC(=S)N(CCc1c(C)[nH]c2ccc(Cl)cc12)Cc1cccnc1	-10	-23%	2.6	-2	2%[15.4 µM]	-10
Cc1ccc(/C=C/C(=O)Nc2cccc3cccnc23)o1	-17	-2%	-1.2	-13	-1%	-14
Cc1ccc(N2C(=O)c3ccccc3C2=O)cc1C	-11	3%	-2.4	9	-4%	2
CC(C)n1c(N2CCN(C(=O)NCc3ccccc3)CC2)nc2ccccc21	-11	1%	-1.8	-19	-41%[inhibitor]	-10
C=C(C)CNC(=O)c1ccc(OC2CCN(S(=O)(=O)N(C)C)CC2)cc1	-1	-12%	-16	7	2%[15.4 µM]	3
CSc1ncccc1C(=O)Nc1ccc2c(c1)OCO2	-15	-1%	-3.6	-5	-41%[inhibitor]	14
COc1ccc(S(=O)(=O)NCC2CCCN(C(=O)c3cccnc3C)C2)cc1 (centres undefined)	-6	10%	1.4	9	6%	-8
O=C1COc2ccc3ccccc3c21	-6	3%	-2.6	8	-3%[15.4 µM]	10
Cc1ccc(NC(=O)C2(c3ccccc3)CCOCC2)cc1	-2	10%	-3.2	10	5%[15.4 µM]	3
C=CCn1c(C)nnc1SCC(=O)NC1CCCCC1	-10	-3%	-2.9	0	?	-4
COc1ccc(CCNC(=O)COc2ccc(S(=O)(=O)NC3CCCCC3)cc2Cl)cc1OC	18	-10%	2.9	2	-14%	-4
O=C(c1ccco1)N1CCN(S(=O)(=O)c2ccc(S(=O)(=O)NC3CCCC3)cc2)CC1	-11	0%	0.8	-3	-26%	27
CCOc1cc(C2C(C#N)=C(N)Oc3n[nH]c(-c4ccccc4)c32)ccc1O (centres undefined)	-10	10%	-2.7	-12	-55%[inhibitor]	-12

Whole records as entered above.
Shown for CCOc1cc(C2C(C#N)=C(N)Oc3n[nH]c(-c4ccccc4)c32)ccc1O (centres undefined) : D2 potentiator: -10; gsp antagonist: 10%; D2 agonist: -2.7; Six1-Eya2 inh: -12; gsp agonist: -55%[inhibitor]; CtBP-E1A blk: -12
Shown for O=C(c1ccco1)N1CCN(S(=O)(=O)c2ccc(S(=O)(=O)NC3CCCC3)cc2)CC1 : D2 potentiator: -11; gsp antagonist: 0%; D2 agonist: 0.8; Six1-Eya2 inh: -3; gsp agonist: -26%; CtBP-E1A blk: 27

(list continues)
SMILES	D2 potentiator	gsp antagonist	D2 agonist	Six1-Eya2 inh	gsp agonist	CtBP-E1A blk
CC(C)=Cc1oc2ccc([N+](=O)[O-])cc2c1N1CCOCC1	4	-4%	-5.2	1	9%	-2
CN(C(=O)COC(=O)c1ccc([N+](=O)[O-])cc1Cl)C1CCCCC1	-5	6%	?	-14	10%	2
CC(=O)N(C)c1nc(N)n(-c2ccccc2)n1	-2	7%	-4.3	-3	-65%[inhibitor]	.
O=C(OCc1c(-c2ccccc2)ncc2ccccc12)c1ccccc1C(F)(F)F	-5	-7%	-2.7	-2	.	-16
Cc1cccn2c(CNCC(C)Oc3cccnc3)c(C(=O)N3CCOCC3)nc12 (centres undefined)	-4	-12%	-1.6	5	?	12
COC(=O)c1c(NC(=O)CN(c2ccc(C)c(C)c2)S(C)(=O)=O)sc2c1CCCC2	-27	10%	-4.4	-7	-11%	2
O=S(=O)(c1cc(F)ccc1F)N1CCC2(CC1)OCCN2S(=O)(=O)c1ccccc1	1	-1%	-7.0	4	-6%[15.4 µM]	-24
COc1ccccc1N(CC(=O)NC1CCCCC1)S(=O)(=O)c1ccccc1	-9	3%	-2.6	-1	-4%	5
CCOC(=O)C1=C(CS(=O)(=O)c2ccccc2)NC(=O)NC1c1ccccc1 (centres undefined)	-4	2%	0.5	3	4%	5
CS(=O)(=O)c1ccc(C(=O)NCC(c2ccco2)N2CCCCC2)cc1 (centres undefined)	-4	15%	1.7	2	4%[15.4 µM]	7
CCOC(=O)c1c(C)[nH]c(C(=O)OCC(=O)Nc2sccc2C(N)=O)c1C	27	?	10	-6	-3%[15.4 µM]	-5
CCOC(=O)c1ccc(NC(=O)c2nc(S(=O)(=O)Cc3ccccc3)ncc2Cl)cc1	-8	-13%	-0.7	2	-30%[15.4 µM]	-9
CC[C@]12c3[nH]c4ccccc4c3CCN1C(=O)C(CC(=O)NCC13CC4CC(CC(C4)C1)C3)C[C@@H]2C(=O)N1CCN(C(=O)C2CC2)CC1 (some centres undefined)	.	2%	-0.2	-7	.	-11
CCCCOC(=O)Nc1ccccc1C(=O)N1CCCC1	8	15%	-0.4	1	7%	2
O=C(Nc1cccc(Cl)c1)c1nc[nH]c1C(=O)NCCN(CCNC(=O)c1[nH]cnc1C(=O)Nc1cccc(Cl)c1)CCNC(=O)c1[nH]cnc1C(=O)Nc1cccc(Cl)c1	1	11%	-4.0	1	17%	4
COc1ccc(C)cc1NC(=S)N1CCOCC1	8	9%	-4.4	-5	5%	1
COc1cccc(CN(C)CC(=O)Nc2ccccc2C(C)C)c1	-7	-7%	-0.1	-7	-21%[15.4 µM]	-6
CC(C)(C)OC(=O)N1Cc2cc3ccccc3nc2C1CO (centres undefined)	6	5%	-0.5	12	40%	.
Cn1c(=O)c2c(ncn2CC(=O)OCc2ccccc2)n(C)c1=O	25	12%	4.9	5	?	2
CCOC(=O)C1CCN(c2c(N3CCN(c4ccccc4OC)CC3)c(=O)c2=O)CC1	-3	3%	-1.5	-1	-4%	2

Arranged by value in Six1-Eya2 inh (largest number first): 6 from the list above
compound,Six1-Eya2 inh
CCOC(=O)c1ccc(NC(=O)c2nc(S(=O)(=O)Cc3ccccc3)ncc2Cl)cc1,2
O=C(Nc1cccc(Cl)c1)c1nc[nH]c1C(=O)NCCN(CCNC(=O)c1[nH]cnc1C(=O)Nc1cccc(Cl)c1)CCNC(=O)c1[nH]cnc1C(=O)Nc1cccc(Cl)c1,1
CCOC(=O)C1CCN(c2c(N3CCN(c4ccccc4OC)CC3)c(=O)c2=O)CC1,-1
COc1ccc(C)cc1NC(=S)N1CCOCC1,-5
CCOC(=O)c1c(C)[nH]c(C(=O)OCC(=O)Nc2sccc2C(N)=O)c1C,-6
COc1cccc(CN(C)CC(=O)Nc2ccccc2C(C)C)c1,-7

High-throughput results: PubChem, National Center for Advancing Translational Sciences (NCATS)
